# NS1 inh = influenza NS1 inhibition; S. cerevisiae slowed by influenza A NS1, growth recovery by OD600; Potency, µM (series often up to 46.1 µM), inactives show at the highest dose activity, positive = more growth; 0.4% of 270,000 active; further: actives are rising curves; nearly all actives have a fitted effect of over 50% in size
#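 Read-out: OD600 growth recovery of NS1-expressing budding yeast. Cells grown overnight at 30C in -URA glucose medium, washed, resuspended and diluted 1:100 in 2% galactose assay medium, pH 6.0. Same strain lacking NS1 served as positive control.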
# 2A StopGo = lowers the luciferase signal of an FMDV 2A StopGo reporter; human cells with a luciferase reporter of 2A StopGo recoding; control for the full effect not named in the record; Potency, µM (doses to about 57.9 µM), for the others: at the highest dose signal change, negative = less light; 1.2% of 410,000 active; AID 1159524; active = well fitted falling curve with a large enough effect; inconclusive = small, poorly fitted or top-dose-only effect; inactive = no such curve, though single readings can be large or run the other way; tested in HEK293T cells; further: on the % scale 0 is the no-effect control and ±100 the full control effect; nearly all actives have a fitted effect of over 45% in size; luciferase light after 4 h
# RE007 growth inh = less growth of the S. pombe RE007 Vpr strain; S. pombe RE007 Vpr strain, BacTiter-Glo ATP luminescence, 24 h; control for the full effect not named in the record; Potency, µM (highest dose often 92.2 µM), without a hit: at the top dose activity change, negative = less growth; 0.21% of 360,000 active; active = well fitted falling curve with a large enough effect; inconclusive = small, poorly fitted or top-dose-only effect; inactive = no such curve, though single readings can be large or run the other way;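 further: on the % scale 0 is the no-effect control and ±100 the full control effect; nearly all actives have a fitted effect of over 50% in size; the assay follows cell death caused by Vpr and the record does not say whether a fall means rescue or toxicity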
#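 Fission yeast strain RE007, carrying one chromosomally integrated HIV-1 vpr copy, was seeded at OD 0.01 in PMG+AL medium with 23 nL pinned compound. After 24 h at 30 °C and 99% humidity, viability was read by BacTiter-Glo luminescence.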
# SARS PLpro yeast = SARS-CoV PLP inhibition in yeast; S. cerevisiae expressing SARS-CoV PLpro, growth rescue; control for the full effect not named in the record; Potency, µM (doses to about 32.9 µM), for inactives: at the top dose activity, positive = growth rescue; 0.19% of 330,000 active; AID 485353; further: 0% is about no effect; nearly all actives have a fitted effect of over 55% in size; growth read by luminescence after 48 h
# Cruzain noTriton = blocks cruzain activity in detergent-free assay; P25779; purified cruzain, Z-FR-AMC fluorescence, no detergent; Potency, µM, without a hit: max response, negative = inhibition, actives largely listed as inhibitors; 2.3% of 200,000 active; active means well fitted curve in the direction sought with a large enough effect; inconclusive means small, poorly fitted or top-dose-only effect, or another doubt; inactive means no such curve, though single readings can be large; an effect the other way counts as inactive or inconclusive;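 further: plate controls were enzyme without inhibitor for no effect and buffer without enzyme for full effect; nearly all actives have a fitted effect of over 40% in size; top concentration of the series not given in the record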
# Target sequence (P25779 123-467 limits assumed): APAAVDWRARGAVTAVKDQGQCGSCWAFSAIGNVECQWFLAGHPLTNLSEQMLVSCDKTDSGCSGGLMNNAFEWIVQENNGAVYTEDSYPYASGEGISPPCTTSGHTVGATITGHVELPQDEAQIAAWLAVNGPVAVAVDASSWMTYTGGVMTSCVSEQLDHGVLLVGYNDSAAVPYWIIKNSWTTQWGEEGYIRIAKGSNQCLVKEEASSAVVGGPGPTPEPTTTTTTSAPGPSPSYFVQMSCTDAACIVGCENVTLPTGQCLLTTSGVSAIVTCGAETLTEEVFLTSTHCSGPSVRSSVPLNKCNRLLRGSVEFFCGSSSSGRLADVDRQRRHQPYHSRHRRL
#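 Purified cruzain at 1.5 nM, pre-incubated 15 min with compound at room temperature in 100 mM sodium acetate pH 5.5, 5 mM DTT, 0.00005% Triton X-100. Reaction started with 2 uM Z-FR-AMC; AMC fluorescence increase over 60 s gives rate.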
# Marburg entry inh = Marburg virus entry inhibition; AID 540276; Marburg virus pseudotyped entry inhibition, cell reporter; control for the full effect not named in the record; about a third of the inactives were read at about 46 µM; Potency, µM (highest dose often 37.8 µM), inactives show at the highest dose activity change, negative = inhibition, hits mostly inhibitors; 1.8% of 300,000 active; active = well fitted inhibition curve with a large enough effect; inconclusive = small, poorly fitted or top-dose-only effect, or effect the other way; inactive = flat fitted curve, though single readings scatter; tested in HEK293 cells; about a fifth of its hits are not listed in these tables; further: on the % scale 0 is the no-effect control and ±100 the full control effect; luciferase read-out
# Cruzain Triton = inhibitors of Trypanosoma cruzi cruzain with detergent | P25779 | purified cruzain, Z-FR-AMC fluorescence, 0.01% Triton | Potency, µM, without a hit: max response, negative = inhibition, actives largely listed as inhibitors | 0.43% of 200,000 active; active means well fitted curve in the direction sought with a large enough effect; inconclusive means small, poorly fitted or top-dose-only effect, or another doubt; inactive means no such curve, though single readings can be large; an effect the other way counts as inactive or inconclusive;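 further: plate controls were neutral wells for no effect and buffer without enzyme for full effect; nearly all actives have a fitted effect of over 40% in size; top concentration of the series not given in the record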
#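 Compounds were screened in titration against cruzain (1.5 nM) with 0.01% Triton X-100 to counter colloidal aggregation. Activity was the AMC fluorescence increase over 60 s after adding 2 uM Z-FR-AMC at pH 5.5.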
# Lassa entry inh = Lassa virus entry inhibition | Lassa virus pseudotype entry inhibition, cell reporter; control for the full effect not named in the record | Potency, µM (doses to about 37.9 µM), for inactives: top-dose activity change, negative = inhibition, usual class: inhibitors | 1.2% of 300,000 active | AID 540256; active means well fitted inhibition curve with a large enough effect; inconclusive means small, poorly fitted or top-dose-only effect, or effect the other way; inactive means flat fitted curve, though single readings scatter; tested in HEK293 cells; further: on the % scale 0 is the no-effect control and ±100 the full control effect; nearly all actives have a fitted effect of over 50% in size; luciferase read-out
# * = called active by the depositor; ? = inconclusive; . = not tested or not shown; & = joins results of further samples; [ ] = remark or other dose. Unless noted, the call rests on the fitted dose curve; in most records, active means well fitted rising curve with a large enough effect; inconclusive means small, poorly fitted or top-dose-only effect; inactive means no such curve, though single readings can be large or run the other way. Potency means the concentration at half of the fitted maximal effect.
SMILES,NS1 inh,2A StopGo,RE007 growth inh,SARS PLpro yeast,Cruzain noTriton,Marburg entry inh,Cruzain Triton,Lassa entry inh
COc1cc(N=Nc2c(O)c3ccccc3[nH]c2=O)c(OC)cc1N=Nc1ccccc1,1%,-16%,-6%,1%,.,7%[46.1 µM],.,6%[46.1 µM]
Cc1ccc(N(CC(=O)N2CCN(c3ccccc3)CC2)S(=O)(=O)c2c(C)noc2C)cc1,.,-13%,.,.,-6%,14%[46.1 µM],-0.9%,-2%[46.1 µM]
CCOc1cc(/C=C/c2cc(C(=O)O)c3ccccc3n2)ccc1OC,5%,-3%,-16%,-15%,15%,?,-9.9%,0%
Cc1ccc(CCNC(=O)CS(=O)Cc2nc(-c3ccccc3F)oc2C)cc1 (stereo not given),1%,-15%,-4%,1%,.,-22%[46.1 µM],.,25%[46.1 µM]
CCSc1nnc(NC(=O)c2ccc(C)cc2)s1,-10%,.,-15%,20%,0.63µM*,?,1.9%,-20%
CN1CCN(C2=C(Cl)C(=O)c3ccccc3C2=O)CC1,.,32µM*,?,.,.,?,.,?
C/C(=N\Nc1nc2c(s1)CCCC2)c1ccccc1,7%,-23%,-20%,-2%,?,?,-14%,?
Cc1cc(Br)ccc1NC(=O)c1cc2c(s1)-c1ccccc1SC2,.,-19%,.,.,7.9µM*,?,-7.4%,-12%[46.1 µM]
Cc1nc(N2CCN(c3ccccc3)CC2)[nH]c(=O)c1C,5%,-11%,-9%,3%,.,-15%,.,4%
CCc1nnnn1-c1ccc([N+](=O)[O-])cc1C,4%,-15%,6%,0%,.,?,.,25%
CCOc1ccc(C(=O)NCC(=O)NCC(c2ccc(OC)cc2)N2CCCC2)cc1 (stereo not given),.,-9%,-13%,-2%,.,?,.,-22%
Cc1cc(C)c2nc3s/c(=C/c4ccc5c(c4)n(C)c(=O)n5C)c(=O)n3c2c1,-10%,.,.,3%,0%,0%,3.9%,.
CCOC(=O)C1CCN(C(=O)c2ccc(OCC(=O)Nc3ccc(OCC)cc3)c(OC)c2)CC1,.,?,1%,0%,.,-16%,.,-16%
CCc1nnc(NC(=O)CCCSc2nc3ccccc3[nH]2)s1,.,-13%,-1%,0%,.,24%[46.1 µM],.,-2%
COc1cc(/C=C2\NC(=S)N(C)C2=O)ccc1OCc1cccc(F)c1,2%,1%,-5%,-2%,.,.,.,.
O=C(NCc1cccs1)c1ccc(S(=O)(=O)N2CCOCC2)cc1,4%,1%,-12%,-5%,.,-5%,.,-26%
COc1ccc(NC(=S)N2CCC(C(=O)c3ccc(C)cc3)CC2)cc1,-17%,13%,4%,15%,.,.,.,.
O=C(Nc1ccccc1Cl)c1cc(S(=O)(=O)N2CCCC(C(=O)O)C2)ccc1F (stereo not given),?,15%,8%,15%,15%,7%&3%,0.6%,14%
Cc1ccc(CCNC(=O)c2nnc(CS(=O)(=O)c3ccccc3)o2)cc1,0%,-15%,-6%,4%,.,.,.,.
N#C/C(=C\c1c(N2CCN(Cc3ccccc3)CC2)nc2ccccn2c1=O)S(=O)(=O)c1ccccc1,-4%,16%,-10%,-1%,.,.,.,.
O=C(NNc1c(Cl)cc(Cl)cc1Cl)C1CCC1,1%,-10%,18%,-11%,7%,?,2.6%,-1%
Cc1ccc(NC(=O)C2CCN(S(=O)(=O)c3ccc4c(c3)CCCC(=O)N4)CC2)c(Cl)c1,.,?,.,.,-3%,.,-2.6%,?
O=C(NCCc1ccccc1)C(=O)NCC(c1cccs1)S(=O)(=O)c1cccs1 (stereo not given),.,-22%,.,.,0%,.,2.0%,-24%[46.1 µM]
Cc1nn(C)c(Oc2ccccc2)c1CCNC(=O)CCl,2%,-6%,0%,1%,.,-28%,.,-1%
COc1ccc(-n2ccnc(SCC(=O)NC3CCCC3)c2=O)cc1,5%,-13%,-8%,-5%,.,.,.,.
CCc1ccc(NC(=O)C(CC)n2nnc(C(=O)OC)c2C(=O)OC)cc1 (stereo not given),.,-8%,.,.,-13%,9%[46.1 µM],-1.9%,?
Cc1cccc(NC(=O)c2cccc(S(=O)(=O)N3CCCC3)c2)n1,.,13%,3%,-1%,.,?,.,12%
Cc1cc2c(cc(C(=O)OC(C)C(=O)NCc3ccccc3)n2C)o1 (stereo not given),.,-9%,11%,.,.,17%[46.1 µM],.,4%
CCc1ccc(C(=O)O)cc1,-3%,-3%,-20%,0%,.,-2%,.,11%
COc1ccc(C(=O)Nc2ccc(F)cc2F)cc1OC,-3%,39%[activator],7%,5%,5%,0%,0.0%,9%
C/C(=N\O)C(C)Oc1ccc(Cl)cc1 (stereo not given),.,-8%,1%,-1%,.,3%[46.1 µM],.,5%
O=C(Nc1ccc(Br)cc1)C1CCN(c2cnccn2)CC1,?,?,-8%,5%,12%,-21%&1%[46.1 µM],-5.0%,3%&9%[46.1 µM]
COc1ccc(CNC(=O)c2nnn(-c3cccc(C(F)(F)F)c3)c2N)cc1,.,0%,-17%,-8%,.,-32%[46.1 µM],.,0%
CCc1n(CC(O)COC2CCCCC2)c2ccccc2[n+]1C (stereo not given),-3%,-3%,4%,0%,.,-7%[46.1 µM],.,-4%[46.1 µM]
CCCCc1n[nH]c2c1C(=O)CC(C)(C)C2,-6%,-6%,-6%,-6%,9%,15%[46.1 µM],2.6%,13%
CC(=O)N(Cc1ccccc1)c1ccccc1C(=O)O,0%,12%,-10%,-1%,.,-10%[46.1 µM],.,-21%
CCN(c1ccccc1)S(=O)(=O)c1cccc(C(=O)N(C)CCOc2ccccc2)c1,.,-4%,1%,-3%,.,-28%,.,?
Cc1ccc(C(=O)Nc2cccc(OCc3cc(=O)n4c5c(sc4n3)CCCC5)c2)cc1,.,-10%,.,.,1%,29%[46.1 µM],0.7%,9%[46.1 µM]
Cc1ccccc1C(=O)Nc1ccc(C(=O)OCc2cc(=O)n3c4c(sc3n2)CCCC4)cc1,.,-15%,.,.,-1%,.,1.4%,?
CC1(C)CC2CN(C(=O)Cc3ccccc3)C(C)(C2)C1 (stereo not given),2%,-5%,-5%,0%,.,.,.,.
Cc1ccc(S(=O)(=O)N/N=C/c2ccc(O)cc2O)cc1[N+](=O)[O-],9%,41%[activator],0%,1%,.,7%[46.1 µM],.,0%
CC(=O)c1cc2c(cc1NC(=O)c1cc3nc(C(C)C)cc(C(F)(F)F)n3n1)OCO2,-7%,2%,5%,-3%,?,14%,-7.4%,1%
COc1ccc(NC(=O)NNC(=O)c2ccc(-c3ccccc3)cc2)c(OC)c1,4%,21%,-4%,3%,.,3%,.,0%
COc1cccc(-c2c(-c3cc(OC)cc(OC)c3)n(C)c3ccc(-c4ccc(OC)nc4)cc23)c1,.,-28%,-8%,-1%,.,1%,.,.
COc1ccc(/C=C/C(=O)c2sc(-c3ccc(Cl)cc3)nc2C)cc1,-1%,.,.,9%,?,2%,0.7%,.
Clc1ccc2nc(-c3ccc4c(c3)OCO4)cn2c1,-4%,0%,?,-3%,.,?,.,?
CN(CCC#N)Cc1cc(=O)oc2ccc3ccccc3c12,-2%,-24%,7%,0%,.,-15%[46.1 µM],.,21%[46.1 µM]
COc1ccnc(Oc2ccc(F)cc2)c1C(=O)N/C=N/OCc1ccc(F)cc1Cl,6%,.,7%,-11%,?,?,-2.1%,9%

# In a second layout: results already given.
# Order of results: NS1 inh, 2A StopGo, RE007 growth inh, SARS PLpro yeast, Cruzain noTriton, Marburg entry inh, Cruzain Triton, Lassa entry inh
CCc1nnnn1-c1ccc([N+](=O)[O-])cc1C
  4%, -15%, 6%, 0%, ., ?, ., 25%
CCOc1ccc(C(=O)NCC(=O)NCC(c2ccc(OC)cc2)N2CCCC2)cc1 (stereo not given)
  ., -9%, -13%, -2%, ., ?, ., -22%

# Next section.
SMILES,NS1 inh,2A StopGo,RE007 growth inh,SARS PLpro yeast,Cruzain noTriton,Marburg entry inh,Cruzain Triton,Lassa entry inh
O=C(CSc1nnc(SCc2ccc(Cl)cc2)s1)N/N=C/c1ccccc1C(=O)O,8%,-3%,-3%,-1%,.,.,.,.
CCCn1c(=O)c2sccc2n2c(CCCC(=O)N3CCN(c4ccccc4)CC3)nnc12,.,-13%,.,.,-10%,.,2.3%,8%[46.1 µM]
CCCCCN(CCCCC)C(=O)C(CCC(=O)O)NC(=O)c1ccc(Cl)c(Cl)c1 (stereo not given),?,-11%&5%,2%[18.4 µM],.,?,?,-7.6%&1.1%,-1%
O=C1OC(N2CCN(C(=O)C3CCCO3)CC2)c2ccccc21 (stereo not given),10%,-6%,3%,4%,-3%,1%[46.1 µM],2.1%,?
COc1c(C)cccc1C(=O)NC(=S)Nc1cccc2nsnc12,-4%,15%,9%,-1%,.,-2%[46.1 µM],.,8%[46.1 µM]
O=C(/C=C/c1ccc(OC2CSC2)cc1)c1ccccc1,-18%,-44%,?,-8%,-3%,?,-6.8%,?
O=C(NC(=S)Nc1ccc(S(=O)(=O)N2CCCCC2)cc1)c1cccs1,9%,-12%,-1%,20%,-6%,-2%,-7.9%,-2%
Cn1c(=O)c2c(ncn2CC(=O)OCC(=O)Nc2ccccc2)n(C)c1=O,3%,-6%,-2%,-1%,.,3%[46.1 µM],.,25%[46.1 µM]
O=S(=O)(Nc1cccc(-c2nc3cccnc3s2)c1)c1cccs1,3%,61%[activator],11%,0%,.,2%[46.1 µM],.,-13%
O=C(CCN1CCN(c2ccccc2F)CC1)Nc1ccccc1F,-3%,3%,-4%,?,-3%,-13%,5.6%,0%
COc1ccc(S(=O)(=O)N2CCC(N3CCN(Cc4ccccc4)CC3)CC2)cc1,.,-16%,-24%,-3%,.,-18%[46.1 µM],.,-12%[46.1 µM]
CCOc1ccccc1NC(=O)c1c2c(nc3ccccc13)C(=O)N(C1CCCCC1)C2,.,-24%,.,.,?,.,-7.6%,?
COCCOC(=O)/C=C1/NC(=O)CS1,?,-11%,9%,-1%,-2%,9%,-2.3%,11%
CS(=O)(=O)N(CC(=O)Nc1ccc(F)cc1)C1CCCCC1,?,15%,-15%,1%,.,?,.,0%
